NPR1 antag: human Npr1 receptor antagonism; P16066; HEK293 hNpr1 GloSensor cGMP, ANP-stimulated luminescence; Potency, µM (top dose mostly 46.3 µM), for the others: at the top dose activity change, negative = inhibition, most hits filed as inhibitors; actives 1.6% (n = 76,000); AID 1347048; active = well fitted inhibition curve with a large enough effect; inconclusive = small, poorly fitted or top-dose-only effect; inactive = no such curve, though single readings can be large or run the other way;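 note: nearly all actives have a fitted effect of over 60% in size; nearly all hits also lower the signal before the agonist is added; a reference antagonist and vehicle were the controls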
Target sequence (P16066 whole entry, looked up): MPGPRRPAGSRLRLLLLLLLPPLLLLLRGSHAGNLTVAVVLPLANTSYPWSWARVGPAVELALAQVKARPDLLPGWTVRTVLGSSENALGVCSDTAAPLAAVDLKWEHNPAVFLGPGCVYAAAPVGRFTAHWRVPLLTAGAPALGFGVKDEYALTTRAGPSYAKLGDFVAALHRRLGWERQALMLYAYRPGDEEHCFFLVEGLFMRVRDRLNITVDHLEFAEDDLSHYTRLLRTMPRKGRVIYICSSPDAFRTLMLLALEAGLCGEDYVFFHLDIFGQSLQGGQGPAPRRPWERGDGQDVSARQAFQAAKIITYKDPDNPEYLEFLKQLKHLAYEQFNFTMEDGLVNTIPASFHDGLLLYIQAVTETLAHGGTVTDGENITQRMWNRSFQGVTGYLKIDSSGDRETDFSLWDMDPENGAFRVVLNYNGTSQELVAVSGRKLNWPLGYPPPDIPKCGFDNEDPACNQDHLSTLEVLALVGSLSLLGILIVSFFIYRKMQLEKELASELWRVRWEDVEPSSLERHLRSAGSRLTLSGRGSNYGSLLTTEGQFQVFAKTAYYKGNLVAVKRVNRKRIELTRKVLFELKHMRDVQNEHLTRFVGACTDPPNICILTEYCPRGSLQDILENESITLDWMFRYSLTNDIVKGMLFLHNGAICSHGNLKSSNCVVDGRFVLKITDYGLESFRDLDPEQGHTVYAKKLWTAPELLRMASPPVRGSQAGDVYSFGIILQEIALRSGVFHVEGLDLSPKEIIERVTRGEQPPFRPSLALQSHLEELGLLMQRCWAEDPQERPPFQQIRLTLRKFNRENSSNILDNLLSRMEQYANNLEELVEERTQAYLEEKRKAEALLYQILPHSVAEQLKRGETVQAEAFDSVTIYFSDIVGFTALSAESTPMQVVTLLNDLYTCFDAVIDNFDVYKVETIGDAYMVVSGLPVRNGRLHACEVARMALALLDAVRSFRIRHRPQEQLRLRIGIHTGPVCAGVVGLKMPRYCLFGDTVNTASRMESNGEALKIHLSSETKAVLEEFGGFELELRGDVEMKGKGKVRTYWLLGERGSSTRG
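Compound pre-incubated 30 min at room temperature on GloSensor-loaded HEK293 cells stably carrying hNpr1 and the pGS-40F cGMP biosensor. Stimulation uses hNppA at 0.1 nM final; luminescence is taken at baseline and 20 min post-agonist.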
Starred values were filed as active, the others as inactive; ? = inconclusive; [ ] = another dose, or the depositor's remark. % is set by controls: 0 for no effect and ±100 for the full control effect; potency is the fitted concentration of half-maximal effect. An excerpt; count on the stated rates, not on these rows.

SMILES	NPR1 antag
COc1ccc(-c2cc(C[C@H]3CNCC[C@H]3CC(=O)NCc3ccc(F)cc3)no2)cc1	-14%
CCC(CC)C(=O)NC[C@@H]1C=C(C)[C@H](Cc2nc3ccccc3n2C)C[C@H]1C(C)C	?
COCc1nc(NCc2cn3cc(C)sc3n2)cc(C2CC(N)C2)n1 (centres undefined)	1%
Cc1ccc(S(=O)(=O)Nc2ccc(C)n(CC(=O)N3CCCN(C)CC3)c2=O)cc1	5%
CCOCCCNC(=O)N1[C@@H]2CC[C@H]1CC(NC(=O)c1ccc(F)cc1)C2 (some centres undefined)	-3%
CN(Cc1cnn(C)c1)C(=O)C1C2C(=O)N(Cc3ccc(F)cc3)C[C@@]23C=C[C@@H]1O3 (some centres undefined)	5%
Cc1nn(-c2cccc(Br)c2)c(C)c1[C@@H]1C=C[C@@H](NCc2cccc(C#N)c2)C1	-20%
O=C(c1ccc(F)cc1)N1CC(c2noc(-c3ccccc3)n2)C1	0%
CN1c2cc(C(=O)N3CCN(c4cccc(Cl)c4)CC3)ccc2C(=O)N2CCCC21 (centres undefined)	-5%
O=C(NC[C@H]1O[C@@H]2C[C@@H](CC(=O)N3CCC(F)(F)C3)O[C@@H]2[C@@H]1O)NC1CCCCC1	5%[70.6 µM]
COc1cccc(-c2cccc(-c3nc(C4CCOCC4)nn3CCO)c2)c1	-1%
CCCNC(=O)N1CCN2C(=O)c3cc(-c4cccc(C(F)(F)F)c4)ccc3NC(=O)[C@@H]2C1	3%
COc1ccc(CC(=O)NC2CCCc3c2[nH]c2ccccc32)cc1 (centres undefined)	-18%
O=C(C1CC1)N1CCCC(c2noc(COc3ccccc3F)n2)C1 (centres undefined)	3%
CC(C)(C)CC(=O)Nc1nc2c(s1)C[C@@H]1[C@](C)(CO)[C@H](O)CC[C@@]1(C)[C@@H]2CC(=O)NC1CCCCC1	-1%

3 entries out of the list, ordered by SMILES length, low to high.
SMILES	NPR1 antag
COc1cccc(-c2cccc(-c3nc(C4CCOCC4)nn3CCO)c2)c1	-1%
COc1ccc(-c2cc(C[C@H]3CNCC[C@H]3CC(=O)NCc3ccc(F)cc3)no2)cc1	-14%
CCCNC(=O)N1CCN2C(=O)c3cc(-c4cccc(C(F)(F)F)c4)ccc3NC(=O)[C@@H]2C1	3%

The listing picks up, starting 7 compounds before the break.
SMILES	NPR1 antag
CN1c2cc(C(=O)N3CCN(c4cccc(Cl)c4)CC3)ccc2C(=O)N2CCCC21 (centres undefined)	-5%
O=C(NC[C@H]1O[C@@H]2C[C@@H](CC(=O)N3CCC(F)(F)C3)O[C@@H]2[C@@H]1O)NC1CCCCC1	5%[70.6 µM]
COc1cccc(-c2cccc(-c3nc(C4CCOCC4)nn3CCO)c2)c1	-1%
CCCNC(=O)N1CCN2C(=O)c3cc(-c4cccc(C(F)(F)F)c4)ccc3NC(=O)[C@@H]2C1	3%
COc1ccc(CC(=O)NC2CCCc3c2[nH]c2ccccc32)cc1 (centres undefined)	-18%
O=C(C1CC1)N1CCCC(c2noc(COc3ccccc3F)n2)C1 (centres undefined)	3%
CC(C)(C)CC(=O)Nc1nc2c(s1)C[C@@H]1[C@](C)(CO)[C@H](O)CC[C@@]1(C)[C@@H]2CC(=O)NC1CCCCC1	-1%
CCOc1ccc(CC(=O)N2[C@@H]3CC[C@H]2CC(NC(=O)c2ccncc2)C3)cc1 (some centres undefined)	2%
Cc1ccc(-n2c(C3CCN(C(=O)c4ccccc4Cl)CC3)n[nH]c2=O)cc1	0%
O=c1c2cc(-c3ccc(F)cc3)nn2ccn1CC(O)c1ccc(F)cc1 (centres undefined)	4%
CN(Cc1cccnc1)C(=O)CCC[C@@H]1[C@H]2CCCN3CCC[C@@H](CN1Cc1cccnc1)[C@@H]23	-1%
Cc1nc(CC(=O)N[C@@H]2COCC[C@H]2Oc2ccc(C#N)cc2)c(C)s1	-2%
COc1cccc(S(=O)(=O)N2CCN(C3CCN(CCC(C)C)C3=O)CC2)c1 (centres undefined)	1%
CC(=O)NC[C@H]1CCN(Cc2ccc(F)c(Cl)c2)C[C@H]1N(C)C	9%
O=C(Cc1ccc(F)cc1)N1CCCCC12Cc1ccccc1NC2=O (centres undefined)	0%[70.6 µM]
COc1ccc(C(=O)N2CCN(C(=O)Nc3cccc(OC)c3)C[C@@H]2C(=O)N[C@H]2CCCNC2=O)cc1	10%
COC(=O)C1CCN(C(=O)CC(c2ccccc2)c2ccccc2Cl)CC1 (centres undefined)	2%
COc1ccc(C(=O)NC2CCN(C(=O)N3CC4CC(C3)[C@H]3CCCC(=O)N3C4)CC2)cn1 (some centres undefined)	3%
COc1ccc(N2CC(C(=O)NCc3cccc(OC)c3)NC2=O)cc1 (centres undefined)	13%
NC(=O)[C@H](Cc1cccs1)NC(=O)C1=C[C@@H](NC(=O)CC2(CC(=O)O)CCCC2)[C@@H](O)[C@H](O)C1	2%
CCn1ccc2oc(C)c(C(=O)N3CCN(c4ccc(F)cc4)CC3)c2c1=O	6%
COc1ccc(CN2Cc3[nH]cnc3C[C@H]2c2nc(-c3ccccc3)no2)cc1	0%[70.6 µM]
c1ccc(COc2ccc(CN3CCSCC3)cc2)nc1	3%
Cc1ccc(S(=O)(=O)N(C)CC2CCOC2)c(C)c1 (centres undefined)	2%
O=c1[nH]nc2n1CCN(S(=O)(=O)c1ccc3c(c1)OCCO3)CC2	3%
COCC(=O)NC[C@H]1O[C@@H](CO)[C@@H](O)[C@H]1N1CCc2ccccc2C1	1%[70.6 µM]
COc1ccc(C(=O)N2CCc3ccc(C(=O)NCCC(C)C)cc32)cc1	-1%
CCc1noc(-c2ccn3c(CNC(=O)c4ccc(C)c(F)c4)nnc3c2)n1	9%
CCS(=O)(=O)c1ccc2oc([C@H]3CCN(Cc4c[nH]c5ccccc45)C3)nc2c1	-10%[70.6 µM]
COC1C(=O)N(C2CCN(C(=O)c3cnc(C)cn3)CC2)C12CCOCC2 (centres undefined)	2%
FC(F)(F)Oc1ccc(-c2cnc([C@@H]3COCCN3Cc3ncc[nH]3)[nH]2)cc1	-1%[70.6 µM]
CN1CC(=O)N(c2ccccc2F)Cc2c(NCCCO)ncnc21	-1%[70.6 µM]
Fc1ccc(-c2cnc3n2C[C@H](CNCc2ccccn2)OC3)cc1	-4%[70.6 µM]
CN1CCCCCCN(C(=O)Cc2cccc(F)c2)[C@H]2CCC[C@H]2C1=O	1%
O=C(Cn1cc(C(F)(F)F)ccc1=O)N1CCC2(CCCNC2=O)C1 (centres undefined)	-2%
CN(Cc1ccccc1)[C@@H]1[C@H](O)[C@H](CO)O[C@@H]1CNS(=O)(=O)c1cccs1	12%
CCCc1ccccc1OCC(=O)c1ccc2c(c1)N(CC(=O)NCC1CC1)C(=O)CO2	-10%
O=C(CCC[C@@H]1[C@H]2CCCN3CCC[C@@H](CN1C(=O)c1cc(F)cc(F)c1)[C@@H]23)NCC1CC1	-11%
COc1ccc(NC(=O)O[C@@H]2CO[C@H]3[C@@H]2OC[C@@H]3NS(=O)(=O)c2ccc(Cl)cc2)cc1	-7%
Cc1nnc2n1C(C)CN(C(=O)CCSc1ccc3c(c1)OCCO3)C2 (centres undefined)	8%
Cc1ccc(-c2ncc(C(=O)Nc3cccc(Br)c3)c(-c3ccncc3)n2)cc1	-12%
O=C(c1ccccc1)N1C[C@@H](CO)[C@H](c2nc(-c3cccnc3)no2)C1	10%
COc1cccc(CCC(=O)N2C[C@@H](CO)[C@H](c3ccccn3)C2)c1	3%
Cc1cc(C)n(CCCNC(=O)c2cc(COc3ccc4sc(C)nc4c3)on2)n1	7%
CCC(=O)Nc1cccc(C(=O)N2CCN3C(=O)CN(C)C(=O)C3C2)c1 (centres undefined)	5%
O=C1CCCCC(CNC(=O)c2cc(F)ccc2F)N1 (centres undefined)	-7%
CC(C)(C)CC(=O)Nc1ccc([C@@H](O)[C@H]2COCC(=O)N2Cc2cccnc2)cc1	2%[70.6 µM]
Cc1nn(C)c2nc(-c3ccccn3)nc(N3CCC(c4ccc(F)cc4)C3)c12 (centres undefined)	-7%
O=C1C(N2CCN(S(=O)(=O)Cc3ccccc3Cl)CC2)CCN1Cc1cccnc1 (centres undefined)	-2%
COc1ccccc1CN(C)C(=O)CC1C(=O)NCCN1CC1CCCCC1 (centres undefined)	2%
CCN1C(=O)C2(CCN(S(=O)(=O)c3cccc(C)c3)CC2)c2ccccc21	3%
Cc1ccccc1[S+](=O)([O-])N1CC2(CN(CCOc3ccccc3)C(=O)O2)C1	-18%[70.6 µM]
O=c1c2c(CO)c(-c3ccc(F)cc3)nn2ccn1Cc1cccc(F)c1	-25%
Cc1nc(CN2C(=O)OC3(CCN(C(=O)c4cccc(C#N)c4)CC3)C2(C)c2ccccc2)cs1 (centres undefined)	2%
CCc1ccc(N2CC(c3noc(-c4ccsc4)n3)CC2=O)cc1 (centres undefined)	5%
COc1ccc(NC(=O)CN2C(=O)NC3(CCC(C)CC3)C2=O)cc1 (centres undefined)	4%
O=C(NCCc1c[nH]c2ccccc12)[C@@H]1C[C@H]2C(=O)NCCCCCCN(C(=O)C3CC3)[C@H]2C1	-1%
O=C1CS(=O)C2(CCN(S(=O)(=O)c3ccccc3)CC2)N1CC1CC1 (centres undefined)	-8%
O=C(O)c1ccccc1C(=O)NC[C@H]1Cn2c(-c3ccc(F)cc3)cnc2CO1	-1%[70.6 µM]
Cc1nn2c(c1-c1ccccc1N1CCCC1)N(C(=O)c1ccc(Oc3ccccc3)cc1)CCC2	-3%
O=C(c1ccccc1F)N1CCC2(CC1)C(=O)NN=C2C1CC1	-3%[70.6 µM]
COC(=O)C1=C(C)N(Cc2cccc(Cl)c2)C(=O)CC1c1ccccc1Cl (centres undefined)	-15%
Nc1nc(CCC(=O)N2CC[C@@H](NC(=O)c3cccnc3)[C@H](O)C2)cs1	-2%
O=C(c1cccs1)N1CCC(c2n[nH]c(=O)n2Cc2ccc(F)cc2)CC1	2%
Cc1ccsc1CN1CCCCCCN(C)C(=O)[C@@H]2CCC[C@@H]21	-2%
C[C@@H](N)C(=O)N1CCOc2c(O)cc(-c3ncc(C(F)(F)F)cc3Cl)cc2C1	-4%
COc1cccc(OCc2cc(C(=O)N(C)CC(O)CO)n[nH]2)c1 (centres undefined)	11%

Following part
SMILES	NPR1 antag
COCCN1C[C@H]2CN(C(=O)C3CC3)CCN2C1=O	4%[70.6 µM]
Cc1cccc(CNC(=O)C2Cn3cccc3C(=O)N2Cc2ccccc2)c1 (centres undefined)	-13%
Cc1cc(C(=O)N2CCC3(CCCN(CC4CCC4)C3=O)C2)nc(C)n1 (centres undefined)	7%
COc1ccc(-c2cc(N3CCC(NC(=O)c4cccc(C)c4)C3)n[nH]2)cc1 (centres undefined)	1%
Cc1ccc(NC(=O)N2CCC(N(C(=O)C3CC3)C3CCOCC3)CC2)c(C)c1	3%
CN(C)CCNC(=O)c1cc2n(n1)CCCN(C(=O)[C@@H]1CCCN1)C2	2%
COc1cccc(S(=O)(=O)N2[C@@H]3CC[C@H]2CC(NC(=O)c2ccc(F)cc2)C3)c1 (some centres undefined)	3%
Cc1cc(F)cc(CN2CCOc3cc([S+](=O)([O-])N(C)C)ccc3C2)c1	-25%[70.6 µM]
COCCN1C(=O)c2cccn2CC1CNC(=O)CCc1nc2ccccc2s1 (centres undefined)	-3%
Cc1cc(C)nc(CNC2CCN(c3nc(C)nc4sccc34)CC2)n1	-8%
COCCOCc1nc(C2CCN(C(=O)NC(C)C)CC2)no1	-1%
Cc1cc(C)n(CCC(=O)N2CCC(Cc3nc(-c4ccccc4)n[nH]3)CC2)n1	0%
CCc1nc(-c2c3n(c(=O)n(CC(=O)Nc4ccc(C)cc4)c2=O)CCCC3)no1	8%
CCS(=O)(=O)N1C[C@@H](COC)[C@H](c2nc(C)no2)C1	3%
Cc1ccc(-c2ccc3nnc(CNC(=O)c4cccc(N(C)C)c4)n3n2)cc1	-9%
Cc1ccc(CN2C(=O)COC[C@H]2C(=O)Nc2cccc(C(C)C)c2)cc1	-11%
COc1ccc([C@H]2C[C@@H](O)[C@@H](O)[C@@H]2NCc2cccc(C#N)c2)cc1	-3%[70.6 µM]
O=C1C2CN(Cc3cccc(Cl)c3)CCC2OCCN1Cc1ccccc1F (centres undefined)	-2%[70.6 µM]
CC(C)CCN1CCC(N2CCN(S(=O)(=O)c3ccc(F)cc3F)CC2)C1=O (centres undefined)	5%
COC[C@H]1C[C@@H](NC(=O)c2nc3ccccc3s2)[C@H](O)[C@@H]1O	-9%[70.6 µM]
Cn1cc(C(NC(=O)c2cccc(Cn3cccn3)c2)C2CC(O)C2)cn1 (centres undefined)	1%
O=C(C1CCCC1)N1CCCC(c2nn[nH]n2)C1 (centres undefined)	-14%
COc1ccc(Cn2c(C3CCN(C(=O)c4ccsc4)CC3)n[nH]c2=O)cc1	1%
O=C(CSc1ccccn1)NC1CC(=O)N(C2Cc3ccccc3C2)C1 (centres undefined)	-6%
CN(C)Cc1ccc(-c2cc(-c3cn[nH]c3)c3cncn3c2)cc1	3%[70.6 µM]
C[C@@H]1CN(C(=O)CC2CCN(Cc3ccccc3)CC2)CC[C@]1(C)O	-3%
O=C1CCN(C(=O)C2CCN(S(=O)(=O)Cc3cccc(F)c3)CC2)CCCCCCN1	4%
COc1ccccc1C(=O)N1CCCC2(C1)Nc1cccnc1NC2=NCc1ccccc1 (centres undefined)	-11%
CN(C)c1nc2c(c(=O)[nH]1)CCN(Cc1cccnc1)CC2	0%
CCn1ncc(C(=O)N[C@@H]2CN(Cc3ccccn3)C[C@H]2CN(C)C)c1C	3%

Exported as comma-separated lines: entries from further up.
Molecule,NPR1 antag
O=C(CSc1ccccn1)NC1CC(=O)N(C2Cc3ccccc3C2)C1 (centres undefined),-6%
C[C@@H]1CN(C(=O)CC2CCN(Cc3ccccc3)CC2)CC[C@]1(C)O,-3%

Screening data: PubChem, National Center for Advancing Translational Sciences (NCATS)
